Screening results deposited in PubChem by National Center for Advancing Translational Sciences (NCATS).
gsp agonist = gsp mutant agonism; gsp mutant cells, cAMP HTRF, 30 min; control for the full effect not named in the record; Potency, µM (highest dose often 76.9 µM), for the others: top-dose activation (cAMP increase), usual class: activators; hit rate 0.13% among 340,000; AID 624287; active = well fitted activation curve with a large enough effect; inconclusive = small, poorly fitted or top-dose-only effect, or another doubt; inactive = no such curve, though single readings can be large or run the other way; cell line not stated here;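 note: phosphodiesterase inhibitor Ro 20-1724 added with compounds to block cAMP breakdown; potency is the fitted concentration of half-maximal effect; nearly all actives have a fitted effect of over 60% in size; about a fifth of the inactives were tested at one dose only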
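Cells in DMEM/10% FBS with G418 were pretreated with compounds in DMSO plus […] (300 uM stock) for 30 min at 37C. cAMP was measured by HTRF (cAMP-d2 plus anti-cAMP antibody-K) after 30 min at room temperature.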
TRPV1 PAM = human TRPV1 potentiation; hit rate 0.02% among 320,000; potentiation, % at 8.33 µM; TRPV1-expressing cells, Fluo-8 calcium influx, capsaicin EC20 potentiation; host cell line not named in the record; control for the full effect not named in the record; Q8NER1; active means potentiation above 80%; inconclusive means 30% to 80%; inactive means below 30%; note: 0% is about no effect
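TRPV1-expressing cells were cultured overnight at 35.5C and loaded with Fluo-8 calcium dye for 40 to 90 min at room temperature. After a 10 s baseline, compound was added and calcium influx was read kinetically for 3 min (ex 480/em 520 nm).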
Sfp PPTase inh = Sfp phosphopantetheinyl transferase inhibition; Q9F4F7; Biochemical Sfp PPTase activity, qHTS; Potency, µM, for inactives: max response, negative = inhibition, hits mostly inhibitors; hit rate 3.5% among 310,000; AID 1490; active = well fitted inhibition curve with a large enough effect; inconclusive = small, poorly fitted or top-dose-only effect, or another doubt; inactive = no such curve, though single readings can be large or run the other way;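 note: the enzyme is Sfp with the accession as filed and its product quenches rhodamine fluorescence; potency is the fitted concentration of half-maximal effect; 0% = enzyme reaction without inhibitor and -100% = no enzyme wells; top concentration of the series not given in the record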
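Reaction rates are the 30-min fluorescence difference (ex 525, em 598 nm) in wells containing 15 nM Sfp, 5 uM rhodamine-CoA and 12.5 uM BHQ-2-YbbR at pH 7.6 with 10 mM MgCl2.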
gsp antag = antagonizes gsp, the McCune-Albright syndrome mutation; gsp-mutant cells, cAMP HTRF, 30 min; control for the full effect not named in the record; AID 624288; hit rate 0.4% among 340,000; Potency, µM (doses to about 76.9 µM), for inactives: at the highest dose activity change, negative = inhibition, most hits filed as inhibitors; active = falling curve of any shape with a large fitted effect; inconclusive = falling curve, mostly with a smaller effect; inactive = flat or rising curve; cell line not stated here;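 note: intracellular cAMP measured with PDE inhibitor Ro 20-1724 present during compound exposure; potency is the fitted concentration of half-maximal effect; % is set by controls: 0 for no effect and ±100 for the full control effect; nearly all actives have a fitted effect of over 65% in size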
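HTRF cAMP measurement after 30 min RT detection following 30 min, 37C compound treatment alongside […] (added as 300 uM solution) in G418-selected cells seeded at 2000/well and grown 16–24 h.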
Menin MLL FP FL = displaces fluorescein MLL peptide from human menin. Fluorescence polarization, fluorescein-MLL peptide displacement from menin. AID 1766. 290,000 tested, under 10 active. FP activity change, % at 61.4 µM; inconclusive = falling polarisation curve, or a change in total fluorescence; inactive = total fluorescence flat and polarisation flat or rising; no compound was filed as active; the % refers to the polarisation; negative = inhibition;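 note: % of control where 0% means no effect; inhibitors lower the polarisation; unlabelled MLL peptide was the positive control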
D2 potentiator = positive allosteric modulators of human D2 dopamine receptor; hit rate 0.23% among 360,000; potentiation, % (concentration not given with the values); DiscoveRx D2 beta-arrestin cells, luminescence, 90 min; 100% = 57 uM dopamine signal; AID 624464; active = potentiation of 50% or more; inconclusive = 30% to 50%; inactive = 30% or less;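 note: compound concentration not given in the record; tested on top of an EC20 dose of dopamine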
Target sequence (P14416 whole entry, looked up): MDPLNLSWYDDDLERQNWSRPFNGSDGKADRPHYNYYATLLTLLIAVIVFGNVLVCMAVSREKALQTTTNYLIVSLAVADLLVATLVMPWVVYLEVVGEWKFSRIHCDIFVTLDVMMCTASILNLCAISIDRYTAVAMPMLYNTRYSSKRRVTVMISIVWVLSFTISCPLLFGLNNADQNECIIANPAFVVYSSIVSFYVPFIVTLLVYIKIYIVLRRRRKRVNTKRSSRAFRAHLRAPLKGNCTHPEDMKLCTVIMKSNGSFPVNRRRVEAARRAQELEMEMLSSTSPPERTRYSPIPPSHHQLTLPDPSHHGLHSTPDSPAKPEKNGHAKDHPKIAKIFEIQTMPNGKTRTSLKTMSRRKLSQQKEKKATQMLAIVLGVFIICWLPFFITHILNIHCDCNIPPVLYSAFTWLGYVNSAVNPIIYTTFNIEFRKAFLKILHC
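PathHunter D2 cells, attached overnight at 37 deg C, received compound in DMSO plus dopamine at EC20 (50 nM final) for 90 min at 37 deg C. Beta-arrestin recruitment was read as luminescence after 1 h with detection reagent at ambient temperature.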
ClpP mod = qHTS Assay for Activators of ClpP. AID 651965, 2013. hit rate 1.9% among 340,000. Potency, µM (top dose mostly 57.5 µM), inactives show at the highest dose activity change, negative = active. purified B. subtilis ClpP, FRET peptide cleavage, 20 min; active = well fitted falling curve with a large enough effect; inconclusive = small, poorly fitted or top-dose-only effect; inactive = no such curve, though single readings can be large or run the other way; note: potency is the fitted concentration of half-maximal effect; the source files actives as falling curves though it sought activators and does not explain the sign; nearly all actives have a fitted effect of over 65% in size; many hits overshoot -100%
Target sequence (P80244 whole entry, looked up): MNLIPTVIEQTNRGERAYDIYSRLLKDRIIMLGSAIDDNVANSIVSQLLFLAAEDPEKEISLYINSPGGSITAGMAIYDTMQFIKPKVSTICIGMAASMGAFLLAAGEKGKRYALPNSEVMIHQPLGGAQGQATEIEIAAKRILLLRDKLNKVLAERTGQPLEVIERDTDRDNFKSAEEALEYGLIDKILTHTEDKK
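ClpP 10 microg/mL final, pH 8 Tris/KCl buffer with BSA, glycerol, Tween-20; compound pinned in; FRET-FV substrate; RT 20 min; Ex320/Em430; ΔFRET vs ADEP 5.8 microM, DMSO, no enzyme.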
Active calls of the source: *; ? = inconclusive; . = not tested or not shown; & = joins results of further samples; [ ] = another dose, or the depositor's remark. Random draw from the library. About 5.1% of those tested had a hit in this group.

Fields – gsp agonist, TRPV1 PAM, Sfp PPTase inh, gsp antag, Menin MLL FP FL, D2 potentiator, ClpP mod
#1 Cn1nc(-c2ccccc2)c(CO)c1Oc1cccc(C(F)(F)F)c1
→ 4%[15.4 µM], -4, 11%, -20%, -0.9, -5, .
#2 CC1(C)CC(=O)C=C(NCCCN2CCCC2=O)C1
→ -15%, ., ., 5%, ., -14, -4.3%
#3 CC1CCc2nc(NC(=O)Cc3cccs3)sc2C1 (stereo unspecified)
→ 0%, -6, -20%, 2%, 3.5, -4, -4.2%
#4 CCCCNC(=O)c1cc(-c2ccc3c(c2)OCO3)on1
→ -9%, 4, 14%, 5%, 3.7, -3, .
#5 COC(=O)C(Cc1cncn1COCc1ccccc1)NC(=O)OC(C)(C)C (stereo unspecified)
→ -45%[inhibitor], -10, -21%, -8%, 4.0, -2, -1.6%
#6 O=C(CSc1nnc2ccc(-c3ccccn3)nn12)NCCc1ccccc1
→ 23%[15.4 µM], 6, ., -5%, ., -6, 1.3%
#7 COCc1cc(C)[nH]c(=O)c1C#N
→ ?, 19, 17%, 2%, 2.6, -32, 2.8µM*
#8 CCOc1ccc(NC(=O)CCNC(=O)c2ccco2)cc1
→ -6%[15.4 µM], -8, 5%, 3%, -13, -1, .
#9 Cc1ccc(CSCC(=O)N2CCCC2)cc1
→ 5%[15.4 µM], -6, 23%, -2%, -3.9, -2, .
#10 CCC(CO)NCc1ccc(-c2ccccc2)cc1 (stereo unspecified)
→ -3%, -2, 3%, 9%, 0.9, -22, -2.5%
#11 Cn1c(SCC(=O)NNC(=O)c2ccccc2)nnc1C1CC1
→ 5%[15.4 µM], 19, -5%, 13%, -6.2, -4, .
#12 CCCSc1nsc(SCCC)c1C#N
→ 11%, -11, 9%, 1%, 4.0, -2, -2.9%
#13 COc1ccccc1-c1cc(C(=O)N/N=C/c2ccc(C)o2)c2ccccc2n1
→ -54%[inhibitor], 9, ?, -2%, -8.8, -40, 0.1%
#14 CCOC(=O)c1sc(=NC(=O)COc2ccc(Cl)cc2)n(C)c1C
→ -5%[15.4 µM], 0, 4%, -28%, -1.6, 0, .
#15 CCc1ccc(-c2csc3ncn(CC)c(=O)c23)cc1
→ -59%, 4, 7%, -3%, -4.6, -8, -2.3%
#16 CN(C)c1nc(-c2cccnc2)nc(-c2ccccc2)c1C#N
→ -50%[inhibitor][15.4 µM], -9, 6%, -1%, 4.8, 15, .
#17 CCOc1ccc(NC(=O)c2cccs2)c([N+](=O)[O-])c1
→ -10%[15.4 µM], -5, 14%, 16%, 3.3, 0, -0.7%
#18 CCOC(=O)N1CCC(NC(=O)C(NS(=O)(=O)c2ccc3c(c2)CCN3C(C)=O)C(C)C)CC1 (stereo unspecified)
→ -3%[15.4 µM], 3, 1%, 3%, 1.2, -5, -0.1%
#19 COc1ccc(-c2nc(N)nc(C(F)(F)F)c2-c2csc(C)n2)c(O)c1
→ 1%, -4, 2%, -2%, 0.6, 2, 0.0%
#20 CCOC(=O)c1c(C)[nH]c(C(=O)COC(=O)/C=C/c2ccc3c(c2)OCO3)c1C
→ 1%[15.4 µM], -3, -3%, 7%, 2.6, -5, -4.1%
#21 Cn1c(=O)cc(SCC(=O)NCCCN2CCOCC2)c2ccc(Cl)cc21
→ 28µM*, -3, 3%, 6%, 1.8, -23, ?
#22 CCn1cc(CCCC(=O)NCc2cccnc2)c2ccccc21
→ -46%[inhibitor], -26, -2%, 8%, 4.7, -5, -5.1%
#23 COc1ccc(N(CC(=O)N2CCN(Cc3ccccc3)CC2)S(C)(=O)=O)cc1OC
→ -5%, -3, -3%, 6%, -5.3, -7, -1.2%
#24 CC(C)N(C(=O)CSc1nnc(Cc2csc(Nc3ccccc3)n2)o1)C(C)C
→ -9%[15.4 µM], 13, 25%, ?, 8.5, 0, .
#25 COc1ccc2cc(-c3cccnc3)ncc2c1
→ ., -3, ., 5%, ., -12, 4.1%
#26 O=C(c1ccccc1)N(Cc1ccccc1)c1ccccn1
→ -7%, 25, -1%, 5%, -0.5, 0, -3.9%
#27 CCOC(=O)C1CCN(C(=O)C(C)Sc2nnc3ccccn23)CC1 (stereo unspecified)
→ 0%, ., ., -16%, ., -3, .
#28 O=C(CN1C(=O)NC2(CCCC2)C1=O)Nc1nc(-c2ccc(F)cc2)cs1
→ -12%, ?, 1%, 4%, 6.5, 1, -4.0%
#29 CC(=O)c1cc(Cc2csc(C(C)=O)c2)cs1
→ 27%, -7, -2%, 7%, 0.2, -26, 0.5%
#30 CS(=O)(=O)Nc1ccc(C2=NN(C(=O)c3ccco3)C(c3ccc(F)cc3)C2)cc1 (stereo unspecified)
→ 15%, -28, -1%, ?, 14, 0, .
#31 O=C(CNC(=O)c1ccccc1F)OCCCOC(=O)CNC(=O)c1ccccc1F
→ -48%[inhibitor], -25, ., -2%, ., -16, -0.9%
#32 CSC1=C(C#N)C(=O)NC(c2ccccc2O)S1 (stereo unspecified)
→ 0%[15.4 µM], 2, ?, 12%, 4.0, -10, -9.2%
#33 O=C(CN1CCN(S(=O)(=O)c2ccccc2F)CC1)Nc1ccccc1C(=O)c1ccccc1
→ 2%, -2, 6%, ?, -5.4, -4, -1.2%
#34 O=C(O)c1cc2n(n1)C(C(F)(F)F)CC(c1ccco1)N2 (stereo unspecified)
→ 2%, 27, 2%, 0%, 0.0, 1, -1.8%
#35 COC(=O)c1ccc2c(=O)n(-c3ccccc3F)c(=S)[nH]c2c1
→ -24%[15.4 µM], -10, -6%, -32%, -0.2, -3, .
#36 CCOc1cccc(NC(=O)C2CC(=O)N(C)C(=Nc3cccc(F)c3)S2)c1 (stereo unspecified)
→ -27%, -9, 11%, ?, -3.1, -9, -1.0%
#37 Cc1ccc(C(=O)C2=C(O)C(=O)N(Cc3ccco3)C2c2cccc(Br)c2)o1 (stereo unspecified)
→ 1%[15.4 µM], 3, 56µM*, -1%, 1.3, -6, -1.4%
#38 N#CCC(=O)Nc1ccc(C(=O)OCC(=O)Nc2ccccc2-c2ccccc2)cc1
→ 20%[15.4 µM], 10, 12%, 6%, 12, -10, .
#39 CN(C)c1cccc2c(S(=O)(=O)N3CCOCC3)cccc12
→ ?, -9, 18%, 13%, 0.7, 7, -0.8%
#40 C=CCO/N=C/C1=C(O)C(C(=O)OC)C(C)(C)CC1=O (stereo unspecified)
→ 9%[15.4 µM], -6, -17%, 12%, -4.0, -7, .
#41 CCOc1ccc(NC(=O)C(=O)NCCN2CCN(S(=O)(=O)c3ccc(C)cc3)CC2)cc1
→ -2%[15.4 µM], 29, 8%, ., -4.2, 0, .
#42 CC(=O)Nc1ccc(C(=O)NNC(=O)c2csc(N3CCOCC3)n2)cc1
→ -57%[inhibitor], ., ., ., ., -20, -6.6%
#43 O=C(NCc1cccnc1)c1c[nH]c2cc3c(cc2c1=O)OCCO3
→ 17%, 18, 2%, -27%, 3.6, 18, -23%
#44 Cn1c(=O)[nH]c2sc3c(c2c1=O)CC(C)(C)OC3
→ ?, -2, 4%, 15%, 1.3, -12, 1.2%
#45 CCC(c1nnnn1C1CCCC1)N1CCN(c2ccccc2F)CC1 (stereo unspecified)
→ 0%, -20, -4%, -7%, 4.0, -6, 1.7%
#46 COc1ccc(Oc2nnc(-c3ccc(C)cc3)c3ccccc23)cc1
→ 10%, 9, 11%, 7%, 1.9, 2, -0.6%
#47 CCc1ccc(CNC(=O)CCCC(=O)n2nc(C)c3ccccc32)cc1
→ -33%[inhibitor], -6, 2%, -1%, -3.9, -6, -2.9%
#48 O=C(CCc1nc2ccccc2c(=O)[nH]1)NCC(=O)Nc1ccc(F)c(F)c1
→ 3%, 4, ., 5%, ., 10, -13%
#49 CC(C)C[C@@H](COc1ccccc1)N1CCN(CCc2ccccc2)CCC1=O
→ ., -15, -2%, -8%, 0.3, -20, 1.9%&2.3%
#50 COc1cc(Cl)c(C)cc1NC(=O)COC(=O)/C=C/c1c(C)nn(C2CCS(=O)(=O)C2)c1Cl (stereo unspecified)
→ -1%, -4, 12%, -18%, 0.5, -3, -0.2%
#51 Cc1cccc(NC(=O)COC(=O)c2cccs2)c1C
→ 7%, -2, 3%, 6%, -11, 1, .
#52 CC(C)(C)c1nn(-c2ccccc2)c2nc(Cl)c(C=O)cc12
→ -14%, 11, 11%, 19%, 0.8, -1, -0.3%
#53 Cc1cc(/C=C2\C(=N)N3N=C(S(C)(=O)=O)SC3=NC2=O)c(C)n1Cc1ccccc1
→ 24%[15.4 µM], -21, 45µM*, -13%, 17, -6, .
#54 O=S(=O)(c1cc(Cl)cc(Cl)c1)N1CCC2CC1c1cc(Cl)ccc12 (stereo unspecified)
→ ., ., ., -19%, ., 2, 0.0%
#55 CN1CCc2c(sc(NC(=O)c3ccc(C(=O)c4ccccc4)cc3)c2C(N)=O)C1
→ -21%, 3, -9%, 5%, ?, -5, -0.7%
#56 CC(C)(C)C(=O)Nc1sc2c(c1-c1nc3ccccc3[nH]1)CCCC2
→ -77%[inhibitor], -11, 9%, -8%, 5.8, 3, 22µM*
#57 O=C(CCN1C(=O)C2C3CC(C(Br)C3Br)C2C1=O)OCC(=O)c1cccc([N+](=O)[O-])c1 (stereo unspecified)
→ 29%, 15, -2%, -12%, -2.1, -3, .
#58 COC(=O)c1c(NC(=O)COC(=O)c2ccccn2)sc(C)c1C
→ 18%, 1, ., -3%, ., -1, 4.0%
#59 COc1ccc(C)cc1S(=O)(=O)Nc1cccc(Cl)c1
→ 0%, -10, 16%, -4%, 0.8, 0, -1.6%
#60 COc1ccc(-c2nc3c(c(SCC(=O)N4CCOCC4)n2)Cc2c(CO)cnc(C)c2O3)cc1
→ 13%, 4, 36%[activator], -26%, 2.7, 13, -8.8%
